# 2A firefly = lowers the firefly signal of an FMDV 2A StopGo reporter. HEK cells with a luciferase reporter of 2A StopGo recoding. actives 0.23% (n = 120,000). AID 1745856. Potency, µM (series often up to 57.5 µM), for the others: at the highest dose signal change, negative = less light; active = well fitted falling curve with a large enough effect; inconclusive = small, poorly fitted or top-dose-only effect; inactive = no such curve, though single readings can be large or run the other way; also: nearly all actives have a fitted effect of over 60% in size; overnight with compound
# 2A Renilla = lowers the Renilla signal of an FMDV 2A StopGo reporter; HEK cells with a luciferase reporter of 2A StopGo recoding; Potency, µM (series often up to 57.5 µM), without a hit: at the top dose signal change, negative = less light; actives 0.32% (n = 120,000); AID 1745857; active means well fitted falling curve with a large enough effect; inconclusive means small, poorly fitted or top-dose-only effect; inactive means no such curve, though single readings can be large or run the other way; also: nearly all actives have a fitted effect of over 55% in size; overnight with compound
# An asterisk follows results filed as active; ? = inconclusive; & = joins results of further samples; [ ] = another dose, or the depositor's remark. % is scaled to controls: 0 for no effect and ±100 for the full control effect; potency is read from the fitted curve at half-maximal effect. Compounds were not picked by outcome; about 0.53% have a hit in one of these screens.
SMILES,2A firefly,2A Renilla
COc1ccc(CNC(=O)CSCc2cnn(-c3ccccc3)c2-n2cccc2)cc1OC,?,?
Cc1ccc2nc(-c3cccnc3)c(Nc3ccccc3C)n2c1,-10%,-14%
Cn1c(=O)c2c(-c3ccccc3Cl)[nH]cc2n(C)c1=O,-1%,-14%
COC(=O)c1ccc(NC(=O)CN2CCCN(Cc3ccc(Cl)cc3)S2(=O)=O)cc1,-3%,18%
N#Cc1sc2ncccc2c1N,23%,13%
CC(Nc1ccc([N+](=O)[O-])cn1)c1ccc(Cl)cc1 (stereo not given),259%[activator],33%[activator]
O=C(Nc1cc(F)cc(F)c1)c1cnc2ccccc2n1,248%[activator],20%
Cc1ccccc1NC(=O)c1sc2nc3n(c(=O)c2c1C)CCC3,107%[activator],-8%
COc1ccc(Cn2ccn(Cc3cccc(C)c3)c(=O)c2=O)cc1,21%,24%
Cc1ccc(NC(=O)COc2ccc3c(C)c(C)c(=O)oc3c2C)cc1,0%,-1%
CC(C)CCn1c(N2CCC(C(N)=O)CC2)nc2c1c(=O)n(C)c(=O)n2C,13%,5%
CCc1ccc(CNC(=O)c2cc3cc(C)ccc3[nH]2)cc1,60%[activator],0%
COC(=O)Cn1c(=O)c2cccn2c2ccc(F)cc21,-10%,-14%
CC(C)(C)C1CCC2(CC1)C(C(=O)c1ccc(F)cc1)C2(C#N)C#N (stereo not given),7%,21%
CCOc1ccc(C(=O)OCc2nc(N)c3ccccc3n2)cc1,21%,-5%
CCc1nn2c(=O)cc(COC(=O)c3ccccc3NC(=O)C3CCCCC3)nc2s1,-5%,-8%
CC(C)CN1C(=O)C2(CC(=O)Nc3[nH]ncc32)c2ccccc21 (stereo not given),-4%,-5%
O=C1CCCC2=C1C(c1cc(Cl)ccc1O)C1=C(CCCC1=O)O2,0%,0%
Cn1c(=O)n(CC(=O)N2CCCCCC2)c(=O)c2cc(S(=O)(=O)Nc3cccc(C#N)c3)ccc21,3%,80%[activator]
CCCCn1c(=N)c(S(=O)(=O)c2ccc(Cl)cc2)cc2c(=O)n3cccc(C)c3nc21,-12%,-7%
CCc1ccc(OC(C)C(=O)N2CCC(c3nc4ccccc4o3)CC2)cc1 (stereo not given),?,?
O/N=C1\CC(c2ccccc2)Oc2c(Cl)cc(Cl)cc21 (stereo not given),66%[activator],-3%
COCc1nnc(NC(=O)CCn2ccc3cc(OC)ccc32)s1,0%,19%
CCOc1ccc(NC(=O)CCC(=O)N2CCSc3ccccc32)cc1,-7%,9%
CN(Cc1c(F)cccc1Cl)C(=O)c1ccc(NS(C)(=O)=O)cc1,13%,?
CCCCNC(=O)CCCn1c(=O)c2ccccc2n(CC(=O)Nc2ccccc2OCC)c1=O,-1%,7%
COc1ccc(-c2cc(C(F)(F)F)n3nc(C(=O)Nc4cc(C)ccc4C)cc3n2)cc1,-13%,-9%
Cc1ccc(Cn2nnc(C(=O)Nc3ccc(F)c(F)c3)c2N)cc1,18%,-13%
Cc1cc(NC(=O)c2nc3ccccc3nc2NCc2ccccc2)ccc1Br,-11%,0%
COc1ccc(Br)c(C(=O)Oc2cc(Cl)ccc2Cl)c1,8%,2%
CCn1c2c(c(=O)n3ncc(C(=O)Nc4ccc(OC(F)(F)F)cc4)c13)CN(Cc1ccc(OC)cc1)CC2,-18%,-15%
Cc1nn(-c2ccccc2)c(C)c1CCC(=O)N1CCN(S(=O)(=O)c2ccc(F)cc2F)CC1,-10%,-8%
O=C(CSc1nc2cc(Cl)ccc2s1)Nc1cccc(F)c1,21%,0%
CCc1ccc(Cl)c(CC)c1NC(=O)C=C(C)C,-5%,0%
CCOC(=O)c1c(-c2ccc(OC)cc2)oc2ccc(OCc3ccc(C(=O)OC)cc3)cc12,-4%,-10%
O=C(NC1CCCC1)c1cccc(I)c1,0%,-2%[1.06 µM]

# Shown with two lines to a compound: three of the compounds above.
# Values in the order: 2A firefly | 2A Renilla
- COC(=O)c1ccc(NC(=O)CN2CCCN(Cc3ccc(Cl)cc3)S2(=O)=O)cc1
    -3% | 18%
- N#Cc1sc2ncccc2c1N
    23% | 13%
- CC(Nc1ccc([N+](=O)[O-])cn1)c1ccc(Cl)cc1 (stereo not given)
    259%[activator] | 33%[activator]

# (more compounds)
SMILES,2A firefly,2A Renilla
CCNC(=S)N/N=C1\CC2CC=CC12 (stereo not given),10%,13%
Cc1ccc2oc(-c3ccc(C)c(NC(=O)c4ccc(-c5ccccc5[N+](=O)[O-])o4)c3)nc2c1,201%[activator],-6%
COC(=O)c1ccccc1NC(=O)CCn1nc(C)c2c(C)n(-c3ccccc3)nc2c1=O,-20%,-7%
CC1(C(=O)NCc2cccnc2)CCC(=O)N1Cc1ccccc1Cl (stereo not given),1%,10%
Cc1ccc(-c2nn(CC(=O)N(C)C)c(=O)c3ccccc23)cc1,3%,-4%
CC1=C(c2ccc(C)cc2)S(=O)(=O)NC1=NCc1ccccc1Cl,18%,171%[activator]
CCn1c(SCC(=O)Nc2nncs2)nnc1-c1ccc(C)cc1,-6%,4%
CC1CCN(S(=O)(=O)c2ccc3c(c2)c(=O)c(C(=O)NCCc2ccccc2)cn3C)CC1,16%,-5%
Cc1nc2sc3c(c2c2nc(C(=O)NCCN(C)C)nn12)CC(C)CC3 (stereo not given),-2%,-15%
Cc1oc(-c2ccccc2)nc1CC(=O)Nc1cccc(C(=O)NC2CC2)c1,?,?
Cc1ccccc1OCc1nn2c(CN3CCOCC3)nnc2s1,5%,-5%
CC(C)c1cccc(NC(=O)c2cccc3ncccc23)c1,1%,9%
Cc1ccccc1NC(=O)c1ccc(N(Cc2ccccc2)S(C)(=O)=O)cc1,?,?
O=C(NC1CC1)C(c1ccccc1)N1CCN(S(=O)(=O)c2ccccc2)CC1 (stereo not given),-2%,15%
CCOC(=O)c1ccc(N2CCN(c3cccc(Cl)c3)CC2)c(NC(=O)Nc2ccc(Cl)cc2)c1,1%,-19%
COc1ccc(CCNC(=O)c2cc3c(=O)oc4ccc(C)cc4c3s2)cc1OC,-17%,-8%
COc1ccc(-c2nc(CNC(=O)Nc3ccc(C)c(Cl)c3)c(C)o2)cc1,-3%,-9%
Cc1ccc(C(=O)c2c(C)c(CCC#N)n3ccccc23)cc1C,35%[activator],8%
CCOC(=O)c1c(-c2ccc(C)cc2)csc1NC(=O)c1cc(=O)c2cc(Cl)ccc2o1,1%,4%
COC(=O)c1cc(NS(=O)(=O)c2ccc3ccccc3c2)cc(C(=O)OC)c1,-6%,61%[activator]
O=C(O)C(Sc1cnc2ccccc2n1)c1ccccc1 (stereo not given),158%[activator],45%[activator]
CC(OC(=O)c1cc2ccccc2[nH]1)C(=O)Nc1ccccc1 (stereo not given),?,?
COc1ccc(NS(=O)(=O)c2c(C)nc3scc(C)n3c2=O)cc1,-4%,127%[activator]
O=C(Nc1cccc(Cl)c1)c1ccc(Cn2c(=O)c3cccn3c3cccnc32)cc1,-2%,-15%
CCOC(=O)N1CCN(Cc2nc3cc(NC(=O)c4cccc(C)c4)ccc3n2C(C)C)CC1,?,?
Cc1[nH]c2nc3ccccc3n2c(=O)c1Cc1ccccc1,-12%,4%
C=Cc1ccc(CSc2nnc(C)n3c2cc2occc23)cc1,12%,14%
O=C(COc1ccc(Br)cc1)Nc1ccc(C(=O)OC2CCCCC2)cc1,1%,-3%
CCOc1cccc(C(N)=S)c1,11%,2%[1.06 µM]
CSCc1ccc(C(=O)N(CC2CCOC2)C2CC2)cc1 (stereo not given),-7%,-5%
C=CCNC(=O)NC(=O)CN(C)CC#N,-6%,-6%
Cc1nnc(N2CCCC(C(=O)Nc3cc(F)ccc3F)C2)c2nn(-c3ccccc3)c(C)c12 (stereo not given),8%,20%
Cc1cnc(NC(=O)c2occc2-c2ccccc2)s1,62%[activator],-3%
Cc1ccc(-c2onc(C)c2C)cc1S(=O)(=O)Nc1cccc(Cl)c1C,?,15%&69%
COC(=O)c1ccc(C(=O)N(C)Cc2cccnc2)s1,3%,-7%
CCOCCCNC(=O)CSCc1nc(-c2ccc(OC)c(OC)c2)oc1C,?,10%

# Ordered by heavy-atom count (low to high): some entries from above.
SMILES,2A firefly,2A Renilla
CCOc1cccc(C(N)=S)c1,11%,2%[1.06 µM]
C=CCNC(=O)NC(=O)CN(C)CC#N,-6%,-6%
Cc1[nH]c2nc3ccccc3n2c(=O)c1Cc1ccccc1,-12%,4%
Cc1ccc(-c2onc(C)c2C)cc1S(=O)(=O)Nc1cccc(Cl)c1C,?,15%&69%
O=C(COc1ccc(Br)cc1)Nc1ccc(C(=O)OC2CCCCC2)cc1,1%,-3%
CCOCCCNC(=O)CSCc1nc(-c2ccc(OC)c(OC)c2)oc1C,?,10%

# The listing continues:
SMILES,2A firefly,2A Renilla
Cc1cccc(NC(=O)Cc2csc(COc3cccc(C)c3)n2)c1,-4%,-6%
O=C(NCCS(=O)(=O)N1CCN(c2cccc(Cl)c2)CC1)C(c1ccccc1)c1ccccc1,-25%,2%
CC(N(C)C(=O)Cc1cccc(F)c1)C(C)(C)C (stereo not given),7%,-7%
CN1CCN(C(=O)Cc2ccc(Cl)cc2Cl)CC1,69%[activator],-6%
CC(C)CC(=O)NN=C1CCC(C(C)(C)C)CC1 (stereo not given),0%,7%
Cc1cc(NC(=O)c2cc(-c3ccncc3)nc3ccccc23)nn1C,11%,3%
CC(C)c1ccccc1NC(=O)c1nn(Cc2ccccc2)c(=O)c2ccccc12,12%,4%
CCOc1ccccc1NC(=O)c1c(NCc2sccc2C)sc2c1CCCCC2,-9%,220%[activator]
Cc1[nH]c2ccccc2c1C(=O)NCc1ccccc1,81%[activator],59%[activator]
Cc1ccc(CNC(=O)Cn2cc(C(=O)c3ccc(F)cc3)c(=O)c3ccc(C)nc32)cc1,27%,-12%
CCc1ccccc1NC(=O)c1sc2nc3n(c(=O)c2c1C)CCC3,62%[activator],-8%
Cc1cc(NC(=O)C2CC2)sc1C(=O)NC(C)c1ccc(Cl)cc1 (stereo not given),0%,36%[activator]
COc1ccc(-c2coc3cc(OCCN4CCN(C)CC4)ccc3c2=O)cc1,98%[activator],13%
CN(C)CCNCc1ccc(C(F)(F)F)cc1,9%,-1%
O=C(Nc1ccc2oc(-c3cccnc3)nc2c1)c1cccc(Br)c1,8%&14%,-2%&2%
O=c1cc(CO)occ1O,-10%[11.5 µM],-3%
Cc1nc2nc(N)nn2c(C)c1CCC(=O)NCCC(C)C,4%,-7%
COc1ccc(C(=O)n2nc(-c3ccc(Cl)cc3)nc2NCc2ccco2)cc1,0%,-14%
Cc1ccc(S(=O)(=O)N2CCN(CCNC(=O)c3ccc(C(F)(F)F)cc3)CC2)cc1,-25%,?
Cc1ccc(-n2c3c(c(=O)[nH]c2=O)C(C(F)(F)F)(C(F)(F)F)N=C(c2ccco2)N3)cc1,13%,6%
Cc1ccc(CNCc2ccc(-c3ccc(F)cc3)o2)cc1,22%,-8%
COCCn1c(C)cc(C(=O)CSc2nc3ccc(OC)cc3[nH]2)c1C,0%,11%
O=C(Nc1c(C(=O)c2ccc(F)cc2)oc2ccccc12)c1cc(-c2ccccc2)on1,0%,-15%
COC(=O)c1c(NC(=O)COc2ccc(Cl)cc2C)sc2c1CCCCC2,0%,-20%
Cc1cccc(-c2nn3c(=O)cc(CN4CCN(C(=O)COc5ccccc5C)CC4)nc3s2)c1,-1%,-9%
CC(C)C(=O)Nc1ccc(-c2nc3cc(Cl)ccc3o2)cc1,0%,-10%
CCN1CCN(CCCNC(=O)Cn2nc(C)n3c(cc4cc(C)ccc43)c2=O)CC1,?,?
COC(=O)C1=C(C)NC(=O)C1(NC(=O)c1cc(OC)c(OC)c(OC)c1)C(F)(F)F (stereo not given),18%&-10%,16%&-9%
CCc1ccc(N2CCn3c2nc2c3c(=O)n(C/C=C/c3ccccc3)c(=O)n2C)cc1,-9%,-6%
CCCOc1ccc(-c2nc(N3CCC(C)CC3)c3ccccc3n2)cc1,-3%,-6%
Cc1ccccc1CN1CCCN(c2cccc(C(=O)NCc3ccc4c(c3)OCO4)c2)C1=O,10%,42%[activator]
CCOc1ccc(-c2nc(CN3CCN(C(=O)Nc4ccccc4OC)CC3)c(C)o2)cc1,0%,-12%
O=C(CN1C(=O)CCc2cc(S(=O)(=O)N3CCOCC3)ccc21)Nc1cccc(Cl)c1,1%,9%
CCn1ccc2cc(S(=O)(=O)N3CCCN(C(=O)Nc4ccc(C)cc4)CC3)ccc21,9%,26%
COc1ccccc1Oc1c(C)oc2cc(OCC(=O)Nc3cccc(C)c3C)ccc2c1=O,-18%,-16%
CC(N)C1CC2CCC1C2 (stereo not given),11%,17%

# Part of the list above in another layout:
CC(Nc1ccc([N+](=O)[O-])cn1)c1ccc(Cl)cc1 (stereo not given)
  2A firefly: 259%[activator] | 2A Renilla: 33%[activator]
O=C(Nc1cc(F)cc(F)c1)c1cnc2ccccc2n1
  2A firefly: 248%[activator] | 2A Renilla: 20%

# New compounds follow:
SMILES,2A firefly,2A Renilla
Cc1cc(NC(=O)CCSc2nnc3c(Cl)cc(C(F)(F)F)cn23)no1,-3%,-5%
Cc1cc(C)c(NC(=O)CN2CCN(c3ccccc3)CC2)c(Cl)c1,15%,-5%
Cc1nc2c(-c3ccccc3)c(C)nn2c(C)c1CCC(=O)NCCc1ccccc1,-8%,2%
Cc1ccc2cc(C(=O)NCc3cccnc3-n3cccn3)c(C)nc2c1,10%,3%
CSc1ccc(Cl)c(C(=O)NCCC2=CCCCC2)c1,0%,25%[1.06 µM]
CCCC(=O)Nc1nc(-c2c[nH]c3ccccc23)cs1,222%[activator],25%
COC(=O)CC(NC(=O)c1cc2ccccc2oc1=O)c1ccccc1 (stereo not given),0%,0%
O=C(O)c1ccc(/C=C/C(=O)c2cccc(N3CCOCC3)c2)cc1,83%[activator],4%
